Autofluor counter: flagged as autofluorescent in microsphere protease counterscreen; compound autofluorescence counterscreen, microsphere flow cytometry; hits give high values; fluorescence intensity (concentration not given with the values); actives 3.1% (n = 360,000); AID 624483;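 active means at least 3 SD above the mean of all compounds, about 16000 in these data; inconclusive means too few beads counted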;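 further: 100 nL of 1 mM stock went into each well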
RN4220 kill: kills Staphylococcus aureus RN4220; S. aureus RN4220 growth, OD600, 16 h; inhibition, % (concentration not given with the values); actives 0.33% (n = 330,000);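 active means z-score of -3 or lower and OD600 up to 0.18 on both plates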;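 further: plate controls were untreated cells for no effect and reference antibiotic for full effect; stock transfer was 100 nL into about 80 µL; one replicate is shown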
Mtb hypoxia rep: Mtb hypoxia fluorescent reporter inhibition. fluorescence inhibition, % (test concentration not listed). actives 0.1% (n = 300,000). AID 1159583. M. tuberculosis hypoxia-regulated fluorescent reporter, fluorescence;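 active means 35 to 45% if threefold the growth effect, above 45% if 1.5-fold the growth effect; inactive means the rest, general growth blockers included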;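 further: wells of about 50 µL received 100 nL stock; 0% = vehicle wells and 100% = reference inhibitor wells; whole bacteria with a GFP reporter of the hypoxia response; strong numbers were not always called active; many hits fall short of the cut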
BJeLR viability: BJeLR cell viability loss; BJeLR (HRASV12) viability, CellTiter-Glo ATP luminescence, 48 h; reference of the scale not given here; inhibition, % (test concentration not listed); actives 0.17% (n = 300,000); AID 1554;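 active means replicate mean above 50%; inconclusive means above 50% but judged a plate artefact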;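 further: 50 nL library stock added to about 25 µL; numbers are from one replicate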
PrP 5UTR inh: inhibition of PrP 5' UTR reporter expression. cell-based PrP 5' UTR mRNA reporter, plate reader. actives 0.35% (n = 340,000). inhibition, % (no concentration beside the values);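 active means every replicate at 50% or more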;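 further: 0 = median of the neutral control wells; tested in H4 reporter cells; numbers are from one replicate; inactives centre near -14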
Sa ugtP lethal: growth inhibition of S. aureus ugtP deletion strain; AID 1259309; actives 0.54% (n = 330,000); growth inhibition, % (no concentration beside the values); S. aureus RN4220 ugtP deletion, OD600 growth, 16 h; some inactives read as strong as hits;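 active means z-score under -3 and OD600 up to 0.15 on both plates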;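 further: plate controls were untreated wells for no effect and antibiotic for full effect; wells of about 80 µL received 100 nL stock; the first replicate is given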
Mtb hypoxia rep growth: also measured in Mtb hypoxia rep; calls as there; growth inhibition, %; measured here: M. tuberculosis growth (absorbance);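 0% = vehicle and 100% = reference antibiotic; read after six days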
* marks the source's active call; other numbers are inactive results; ? = inconclusive; · = no result given; & = joins results of further samples.

A first look:
SMILES | Autofluor counter | RN4220 kill | Mtb hypoxia rep | Mtb hypoxia rep growth | BJeLR viability | PrP 5UTR inh | Sa ugtP lethal
CCNc1nc(C(=O)O)nc(N2CCOCC2)n1 | 4050 | 5.7 | 7 | -4 | -17 | -5 | 5
O=C(NCc1ccc(F)cc1)c1cc2sccc2n1Cc1ccc(F)cc1 | · | 3.3 | 6 | 10 | 6 | · | 14
COC(=O)COc1cccc2c(=O)n(CC(=O)N3CCC(C)CC3)ccc12 | 4875 | 3.1 | 12 | -4 | 0 | -13 | -3
COc1ccc(N2CCN(C(=O)CCC(=O)N3CC(C)Oc4ccccc43)CC2)cc1 (configuration not stated) | 5946 | 5.8 | 2 | 0 | 7 | -20 | 6

All compounds of this part, from the start:
SMILES | Autofluor counter | RN4220 kill | Mtb hypoxia rep | Mtb hypoxia rep growth | BJeLR viability | PrP 5UTR inh | Sa ugtP lethal
CCNc1nc(C(=O)O)nc(N2CCOCC2)n1 | 4050 | 5.7 | 7 | -4 | -17 | -5 | 5
O=C(NCc1ccc(F)cc1)c1cc2sccc2n1Cc1ccc(F)cc1 | · | 3.3 | 6 | 10 | 6 | · | 14
COC(=O)COc1cccc2c(=O)n(CC(=O)N3CCC(C)CC3)ccc12 | 4875 | 3.1 | 12 | -4 | 0 | -13 | -3
COc1ccc(N2CCN(C(=O)CCC(=O)N3CC(C)Oc4ccccc43)CC2)cc1 (configuration not stated) | 5946 | 5.8 | 2 | 0 | 7 | -20 | 6
O=C(Cc1cc(=O)[nH][nH]1)NN=Cc1ccccc1[N+](=O)[O-] | · | 4.0 | 2 | -3 | · | · | 5
COC(=O)C1=C(N)OC(C)=C(C(C)=O)C12C(=O)N(C)c1ccccc12 (configuration not stated) | 2209 | 1.6 | · | · | -4 | -1 | -1
COC(=O)CCC(=O)OC1(C)C(=O)C=C2C=C(C3CC3)N(Cc3ccc(OC)cc3)C=C2C1=O (configuration not stated) | 2725 | 5.8 | 3 | 2 | 13 | -24 | -6
Cc1nn(C2CCS(=O)(=O)C2)c(Cl)c1/C=C/C(=O)OCC(=O)c1cc(C)n(-c2ccc(F)cc2)c1C (configuration not stated) | 2538 | 1.9 | 8 | 8 | 11 | -15 | -13
CC1=CSC2=NS(=O)(=O)CCN12 | 4984 | 3.8 | 10 | 16 | 0 | -13 | 7
COc1ccc(C(C)=O)cc1CN1C(=O)NC2(CCCCCC2)C1=O | 9663 | -0.7 | -3 | 6 | 8 | -10 | -7
Cc1ccc(C(=O)O)cc1N1C(=O)c2cccc3c([N+](=O)[O-])ccc(c23)C1=O | 3174 | · | · | · | -1 | -3 | ·
CC(C)OCCCNC(=O)C1CCC(CNS(=O)(=O)c2cccc3nsnc23)CC1 (configuration not stated) | 5885 | 0.5 | 7 | 2 | -9 | -37 | -9
Cc1cc(N2CCN(S(=O)(=O)c3ccc(Cl)c(Cl)c3)CC2)c2ccccc2n1 | 3571 | 8.7 | 13 | 7 | · | -28 | -3
Cc1cccc(N2C(=O)c3cccnc3C2=O)c1 | 3652 | 3.6 | 14 | 5 | 21 | -14 | 9
Cc1cc(-c2ccc(C=Nn3cnnc3)o2)c(C)c([N+](=O)[O-])c1 | · | 4.2 | 7 | 5 | · | · | 5
Cc1ccc(Nc2nc3ccc(Cl)cc3n3cnnc23)cc1F | 3090 | 1.9 | 1 | -6 | -4 | 0 | 7
COc1ccc(CN=C2NN=C(c3cccc(OC)c3)CS2)cc1 | 4255 | 2.8 | 14 | 5 | 4 | -34 | 7
O=[N+]([O-])c1ccc(/C=N/n2c(COc3ccccc3)n[nH]c2=S)cc1 | 5892 | · | · | · | -17 | -24 | ·
Cn1cc(CNCC2CCCO2)c(-c2ccc(Oc3ccccc3)cc2)n1 (configuration not stated) | 4819 | -1.3 | 3 | 4 | -2 | -3 | 7
CC(C)C[C@H](NC(=O)N1CC(=O)Nc2ccccc21)C(=O)N[C@@H](Cc1ccccc1)C(=O)O | 6011 | -0.1 | · | · | -4 | -55 | 6
CC(NC(=O)C1CCN(c2nnc(N3CCCC3=O)s2)CC1)c1ccccc1 (configuration not stated) | 6041 | -2.3 | 2 | 2 | -5 | -20 | -5
COc1ccc(C(=O)NC2CCN(C(=S)NCCc3ccccc3)CC2)cc1 | 4758 | 4.1 | -3 | 12 | 1 | 11 | 7
O=C(NCc1ccc(F)cc1)C1CCCN1C(=O)Nc1ccccc1 (configuration not stated) | 3991 | -3.6 | 8 | -9 | 10 | -11 | -2
Cc1cc(OCCn2ccnc2)cc(C(C)C)c1 | 7380 | 8.1 | 16 | 2 | 11 | -24 | -7
Cc1cc(NC(=O)c2ccoc2C)ccc1Br | 8625 | -4.1 | 13 | 9 | · | -52 | -3
Cc1nc(SCc2ccc([N+](=O)[O-])cc2)nc2ccccc12 | 10532 | 6.4 | 14 | 10 | 0 | -18 | 2
COc1cc(C2NC(=O)NC(C)=C2C(C)=O)ccc1O (configuration not stated) | 4516 | 3.3 | -9 | -4 | 5 | · | 5
CCCOc1ccc(-c2nc(N3CCN(C)CC3)c3ccccc3n2)cc1 | 4453 | -15 | 6 | 5 | 0 | -59 | 4
CC(C)C(=O)NNC(=O)c1csc(CS(=O)(=O)c2ccc(Cl)cc2)n1 | 3956 | 1.0 | -9 | 3 | -1 | -19 | 2
Cc1cc(Br)ccc1NC(=O)CN(C)Cc1cccs1 | 5368 | 8.2 | 8 | 6 | -8 | -18 | 1
CCOC(=O)c1cc(C(=O)Nc2ccc(S(=O)(=O)Nc3ccc(OC)cc3)cc2)nn1C | 4624 | · | · | · | -2 | 10 | ·
O=C(CCC(=O)NNC(=O)c1ccc(Cl)cc1Cl)NCc1ccccc1 | 3855 | 2.8 | 0 | 13 | · | 8 | 1
Cc1[nH]ccc(=O)c1Cc1c(Cl)cccc1Cl | 3907 | -0.1 | 7 | 5 | 0 | 0 | 4
Cc1ccc(C)c(S(=O)(=O)N2CCN(C(=O)CCc3c[nH]c4ccccc34)CC2)c1 | · | 15 | 1 | 6 | · | -18 | -1
CCCn1cnc2c(SCCc3ccccc3)nc(N)nc21 | 3362 | 7.6 | 9 | 5 | · | -42 | 9
N#Cc1cccc(-n2c(-c3ccccc3)nnc2-c2ccccc2)c1C#N | 10594 | 1.4 | -3 | 3 | 4 | -16 | 21
CS(=O)(=O)c1ccc(Cl)c(NC(=O)COC(=O)CNC(=O)c2ccc3ccccc3c2)c1 | ? | -1.7 | -8 | -8 | 1 | -15 | -4
COC(=O)C1=C(c2cccc(OCc3ccccc3)c2)CC2CCC1N2C(=O)NCc1ccc(Br)cc1 (configuration not stated) | · | -11 | 9 | 10 | · | · | 0
CN(C)CCNC(=O)CN1C(=O)CSc2ccc(S(=O)(=O)N3CCCCC3)cc21 | 6493 | 0.4 | 5 | -7 | 5 | -11 | 11
c1ccc(Cn2c(NCc3ccco3)nc3ccccc32)cc1 | 22272* | 3.9 | 8 | 15 | 2 | -7 | 0

Entries of single compounds from above. Values in the order: Autofluor counter	RN4220 kill	Mtb hypoxia rep	Mtb hypoxia rep growth	BJeLR viability	PrP 5UTR inh	Sa ugtP lethal
Entry for `CCOC(=O)c1cc(C(=O)Nc2ccc(S(=O)(=O)Nc3ccc(OC)cc3)cc2)nn1C` : 4624	·	·	·	-2	10	·
Entry for `O=C(NCc1ccc(F)cc1)C1CCCN1C(=O)Nc1ccccc1` (configuration not stated) : 3991	-3.6	8	-9	10	-11	-2

(listing goes on)
SMILES | Autofluor counter | RN4220 kill | Mtb hypoxia rep | Mtb hypoxia rep growth | BJeLR viability | PrP 5UTR inh | Sa ugtP lethal
COc1cccc(C=NNC(=S)NCCc2ccccc2)c1OC | · | 5.6 | 4 | 6 | · | · | 6
COc1ccc(CNC(=O)CN2C(=O)NC3(CCCc4sccc43)C2=O)cc1 (configuration not stated) | 5881 | 2.2 | 3 | 3 | · | -2 | 2
CCOc1cc(N2CCOCC2)c(OCC)cc1NC(=O)CN1C(=O)NC(CC(C)C)C1=O (configuration not stated) | 4076 | 3.9 | 2 | -2 | 4 | -20 | -2
Cc1cnc(NC(=O)CSc2nnc(CNc3ccc(F)cc3)n2CC2CCCO2)s1 (configuration not stated) | 9838 | 2.4 | 11 | 9 | 6 | -19 | 6
COc1ccc(C(=O)Cn2nnc(-c3ccccc3F)n2)cc1 | 6721 | 8.9 | 8 | 10 | 10 | -47 | 6
O=C(O)/C=C/C(=O)Nc1ccc(C2(c3ccc(NC(=O)/C=C/C(=O)O)cc3)c3ccccc3-c3ccccc32)cc1 | 3517 | 5.5 | 18 | 4 | 1 | -4 | 1
COc1cccc2[nH]c3c(N4CCC5(CC4)OCCO5)ncnc3c12 | 4260 | 2.7 | 5 | 8 | -11 | -14 | 1
Cc1ccc(C)c(OCCCN2CCCC2)c1 | 21161* | 1.8 | 8 | 2 | -5 | -31 | 3
Cc1csc(NC(=O)C2=NN(c3ccccc3)C(=O)CC2)n1 | 4379 | 1.7 | 4 | 1 | 3 | -29 | -6
Cc1ccc(SC(=O)c2c([N+](=O)[O-])c(C)nn2C)cc1 | · | 3.4 | -5 | -3 | 3 | -27 | 7
Cc1cn2c(=O)c(C(=O)N3CCN(c4ccccc4Cl)CC3)cnc2s1 | 6326 | -1.4 | 6 | -2 | -3 | -8 | 2
C[C@H]1[C@@H](c2ccccc2)O[C@@H](c2ccccc2Br)N1C | 4075 | · | · | · | -4 | -12 | ·
CC1Cc2nc(SCC(=O)N3CCCc4ccccc43)n(C)c(=O)c2S1 (configuration not stated) | 5731 | -9.7 | 4 | -6 | 0 | -12 | -6
COCCCNC(NC(=O)c1ccc(Br)cc1)C(Cl)(Cl)Cl (configuration not stated) | 2547 | 2.7 | -6 | 2 | 10 | -17 | -2
O=C(CC12CC3CC(CC(C3)C1)C2)NN=Cc1ccc([N+](=O)[O-])o1 | · | 46 | · | · | · | · | 83
CC(C)(C)NC(=O)c1ccc(NC(=O)CSc2ccccc2)cc1 | 4706 | -1.4 | 5 | 1 | 6 | -11 | 9
Cc1noc(NS(=O)(=O)c2ccc(N/C=C/C(=O)c3ccncc3)cc2)c1C | 16425* | 1.7 | -1 | 6 | 4 | -10 | 12
COc1ccccc1CNCc1cc(OC)c(OC)c(OC)c1 | 5031 | 5.9 | 11 | 6 | -4 | -27 | 6
CCCCCCCCCCOC(=O)Cn1c(COc2ccccc2C)[n+](C)c2ccccc21 | 3146 | · | · | · | 2 | 18 | ·
O=C(Nc1ccc(C(F)(F)F)cc1-c1ccccc1)c1ccccc1 | 2337 | 3.3 | 6 | 8 | 8 | -5 | 2
CCOC(=O)c1ccc(OC(=O)CCCCCN=C(N)N)cc1 | 5603 | 5.8 | 0 | 3 | -1 | -15 | -1
COc1cc(CC(=O)OCC(=O)Nc2ccc(S(=O)(=O)N3CCCC3)cc2)cc(OC)c1OC | 2167 | 3.5 | · | · | -8 | -8 | 8
CN(C)CCCNC(=O)/C(=C\C=C\c1ccccc1)NC(=O)c1ccc([N+](=O)[O-])cc1 | 6232 | 1.9 | -4 | 4 | 3 | -18 | 11
Cc1ccc(N2CCC(N3CCN(C)C(CCO)C3)CC2)cc1 (configuration not stated) | 4642 | 0.6 | -2 | -7 | 0 | -20 | 2
CC(C)Cc1nnc(NC(=O)CCC(=O)NCCc2ccccc2)s1 | 4118 | 2.5 | 3 | -7 | 18 | -12 | 14
O=C(c1ccc(Cn2cnnn2)cc1)N1CCCC(Nc2ccc(F)c(F)c2)C1 (configuration not stated) | 5136 | 4.2 | 12 | 8 | 4 | -9 | 12
C=CCC(CC(=O)N(CCO)Cc1ccccc1)C(=O)NC(COC(=O)C(CC=C)Cc1ccc(F)cc1)C(C)(C)C (configuration not stated) | · | -2.3&-1.8 | 1&10 | 3&-3 | · | · | 2&-12
Cc1ccc(Oc2c(C)nc(-c3ccccc3)[nH]c2=O)cc1 | 6047 | -0.9 | -1 | 5 | -6 | -33 | 10
CC1=NN(C(=O)c2ccccc2Br)C(O)(c2cccnc2)C1 (configuration not stated) | 4098 | 0.9 | 12 | -1 | -2 | -10 | -2
Cc1ccc(Cn2c(CN(C)Cc3ccccc3)nc3c2c(=O)n(C)c(=O)n3C)cc1 | 5955 | -3.5 | -4 | 5 | 3 | -4 | 39
CC(C)(C)NS(=O)(=O)c1ccc(NC(=O)Cc2ccccc2[N+](=O)[O-])cc1 | 3366 | 7.2 | 10 | 3 | 4 | -9 | -2
Cc1ccc(-c2c[n+](CC(=O)OCc3ccccc3)c3n2CCC3)cc1 | 2366 | 4.1 | 17 | 10 | -6 | -10 | 8
COc1ccc(C2CC2/C(=N/O)c2ccccn2)cc1 (configuration not stated) | 2347 | · | · | · | 8 | -9 | ·
Cc1ccc(S(=O)(=O)N/N=C\c2cc3c(cc2Br)OCO3)cc1 | 2551 | · | · | · | 1 | -20 | ·

From PubChem
